From PubChem BioAssay
miR-21 FLuc: raises the signal of a miR-21 reporter | HeLa miR-21 FLuc reporter, luciferase, 48 h | Potency, µM (titrated, usually from 38.3 µM), without a hit: at the highest dose reporter change, positive = more light | 340,000 tested, under 10 active | AID 2288; active = well fitted rising curve with a large enough effect; inconclusive = small, poorly fitted or top-dose-only effect; inactive = no such curve, though single readings can be large or run the other way;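 also: % of control where 0% means no effect; miR-21 action dims this reporter so a rising signal means less miR-21 action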
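HeLa cells stably expressing CMV-driven firefly luciferase with a downstream miR-21 binding sequence, endogenously expressing miR-21, were treated with titrations (up to about 40uM final) for 48 hours at 37 degree Celsius. Luciferase luminescence was read after lysis.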
Rango complex inh: inhibitors of Rango-importin beta complex formation | Q14974 | Rango CFP/YFP FRET sensor + importin beta, 45 min | Potency, µM (titrated, usually from 92.2 µM), without a hit: top-dose inhibition of complex formation | 340,000 tested, 0.031% active | AID 540263; active = rising FRET ratio curve, often small or poorly fitted; inconclusive = mostly compound fluorescence or quenching in the first reads; inactive = flat curves in all reads;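 also: potency is read from the fitted curve at half-maximal effect; 0% = DMSO wells and 100% = buffer wells lacking importin beta; nearly all actives have a fitted effect of over 15% in size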
Target sequence (Q14974 whole entry, looked up): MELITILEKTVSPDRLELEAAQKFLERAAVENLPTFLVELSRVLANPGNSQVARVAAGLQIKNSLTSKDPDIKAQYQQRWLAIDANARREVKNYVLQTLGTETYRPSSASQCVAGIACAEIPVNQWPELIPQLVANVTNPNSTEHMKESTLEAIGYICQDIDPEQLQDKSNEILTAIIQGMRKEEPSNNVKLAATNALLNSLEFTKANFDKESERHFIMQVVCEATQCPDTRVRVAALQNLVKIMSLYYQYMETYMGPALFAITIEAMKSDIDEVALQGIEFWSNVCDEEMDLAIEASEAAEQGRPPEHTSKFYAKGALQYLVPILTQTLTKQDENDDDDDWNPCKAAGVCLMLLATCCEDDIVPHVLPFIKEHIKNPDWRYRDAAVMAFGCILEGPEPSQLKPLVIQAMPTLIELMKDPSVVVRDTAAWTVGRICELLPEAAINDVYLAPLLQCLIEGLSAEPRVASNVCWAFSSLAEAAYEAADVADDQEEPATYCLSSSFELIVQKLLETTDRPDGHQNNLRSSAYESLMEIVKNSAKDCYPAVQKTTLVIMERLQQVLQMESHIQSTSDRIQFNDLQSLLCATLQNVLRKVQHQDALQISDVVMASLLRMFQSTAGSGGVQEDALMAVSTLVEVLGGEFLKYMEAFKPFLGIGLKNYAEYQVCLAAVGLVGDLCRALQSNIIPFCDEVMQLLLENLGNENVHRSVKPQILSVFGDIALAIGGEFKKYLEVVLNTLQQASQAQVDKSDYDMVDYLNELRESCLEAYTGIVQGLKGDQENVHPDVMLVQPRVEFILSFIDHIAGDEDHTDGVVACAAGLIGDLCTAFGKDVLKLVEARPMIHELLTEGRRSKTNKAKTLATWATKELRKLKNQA
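FRET biosensor (snurportin 1 IBB flanked by EYFP and cerulean), 50 nM, with compound 5 min, then 0.125 microM importin beta in PBS, 1 mM DTT, 0.02% Tween-20, 0.1% BSA. CFP/YFP ratio read after 45 min at room temperature; pre-read flags interference.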
Rango dissoc inh: inhibitors of RanGTP-induced Rango-importin beta complex dissociation | O95149+P62826 | Biochemical FRET Rango-importin beta, RanGTP-induced dissociation | Potency, µM (titrated, usually from 46.1 µM), inactives show top-dose activity change, negative = inhibition | 340,000 tested, 0.071% active; active means falling FRET ratio curve, often poorly fitted, with flat reads before Ran was added; inconclusive means other falling curves, or compound fluorescence or quenching; inactive means flat or rising ratio curve;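 also: potency is read from the fitted curve at half-maximal effect; % of control where 0% means no effect; nearly all actives have a fitted effect of over 45% in size; -100% = wells without RanGTP and RCC1; the record marks most hits as doubtful in a second field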
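Two FRET readings bracket the reaction: one 5 min after compound meets Rango–importin beta, another 45 min after RanGTP-RCC1 (0.6 uM Ran, 0.2 uM RCC1, 2 mM GTP) is added. Only the second defines inhibition.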
GLA inh pH 4.5: alpha-galactosidase A (human) inhibition, pH 4.5. purified enzyme, 4-MU-alpha-Gal fluorescence, pH 4.5. 230,000 tested, under 10 active. P06280. activity change, negative = inhibition, % at 105 µM; inconclusive = small, poorly fitted or top-dose-only inhibition, or a rising curve; inactive = flat fitted curve, though single readings scatter; no compound was filed as active;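 also: 0% = full activity with enzyme and -100% = basal without enzyme; dose as in the result columns while the protocol names 77 µM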
* marks the source's active call; other numbers are inactive results; [ ] = remark or other dose.

What do the screens show for `CC(C)C[C@@]12C(=O)N(c3cccc(F)c3)C(=O)N1[C@H](c1ccc(Br)cc1)[C@@H]1C(=O)N(C(C)(C)C)C(=O)[C@@H]12`?
Rango complex inh: 2.3%; Rango dissoc inh: 17%

Results for CC1CN(C(=O)c2cccc(S(=O)(=O)N3CCN(c4ccccc4)CC3)c2)CC(C)O1 (centres undefined) ?
Rango complex inh: -2.5%; Rango dissoc inh: 2%

How did C=CCN(c1ccc(OC)cc1)S(=O)(=O)c1ccc(Cl)c(C(=O)OCC(=O)NC2CC2)c1 do in these assays?
miR-21 FLuc: -4%; Rango complex inh: 0.4%; Rango dissoc inh: inconclusive; GLA inh pH 4.5: -10

Results for Clc1ccc(CSc2nnc(/C=C/c3ccccc3)o2)c(Cl)c1 ?
miR-21 FLuc: -9%; Rango complex inh: -2.0%; Rango dissoc inh: -8%; GLA inh pH 4.5: -4

What do the screens show for `CCOC(=O)N1CCN(CC(=O)Nc2nc3ccccc3s2)CC1`?
miR-21 FLuc: 5%; Rango complex inh: 0.2%; Rango dissoc inh: -4%

Results for O=[N+]([O-])/C=C/c1cn(Cc2ccc(F)cc2)c2ccccc12 ?
miR-21 FLuc: 27%; Rango complex inh: inconclusive; Rango dissoc inh: -21%; GLA inh pH 4.5: -5

What do the screens show for `Cc1ccc2c(CC(=O)N(CC3CCCO3)c3c(N)n(Cc4ccccc4)c(=O)[nH]c3=O)coc2c1` (centres undefined)?
Rango complex inh: -1.1%; Rango dissoc inh: 0%

How did O=C(O)C1=C(C(=O)Nc2cc(C(F)(F)F)ccc2Cl)CCCC1 do in these assays?
miR-21 FLuc: 1%; Rango complex inh: 0.8%; Rango dissoc inh: -2%; GLA inh pH 4.5: -5

How did COc1ccc(CN(C)CC(=O)Nc2cccc(S(=O)(=O)N(C)c3ccccc3)c2)c(OC)c1 do in these assays?
Rango complex inh: -1.2%; Rango dissoc inh: 1%

How did Cc1cc(F)ccc1NC(=O)C1CCN(C(=O)Nc2ccccc2)CC1 do in these assays?
Rango complex inh: -0.2%; Rango dissoc inh: 0%

What do the screens show for `COc1ccc(COC(=O)NC(C(=O)O)c2ccccc2)cc1` (centres undefined)?
Rango complex inh: 2.1%; Rango dissoc inh: 14%

Results for O=C(N/N=C/c1ccc[nH]1)c1cc2ccccc2cc1O ?
miR-21 FLuc: -26%; Rango complex inh: inconclusive; Rango dissoc inh: inconclusive

Results for Cc1cccc(C)c1NC(=S)NC(C)(C)CO ?
miR-21 FLuc: -2%; Rango complex inh: 0.2%; Rango dissoc inh: -4%; GLA inh pH 4.5: 0

How did O=C(NCc1ccco1)c1ccccc1NS(=O)(=O)c1ccc(Cl)s1 do in these assays?
miR-21 FLuc: 11%; Rango complex inh: -1.3%; Rango dissoc inh: -13%; GLA inh pH 4.5: 4

What do the screens show for `O=C(CCSCc1ccc(Cl)cc1)NCc1cccnc1`?
miR-21 FLuc: 1%; Rango complex inh: -3.1%; Rango dissoc inh: -10%; GLA inh pH 4.5: -5

Results for O=C(CCc1nc(-c2ccccc2F)no1)NCc1ccco1 ?
miR-21 FLuc: -8%; Rango complex inh: -3.2%; Rango dissoc inh: -4%; GLA inh pH 4.5: 1

Results for CC12CCC(=O)N1C(C(=O)NCCN1C(=O)S/C(=C\c3ccccc3Cl)C1=O)CS2 (centres undefined) ?
Rango complex inh: 3.0%; Rango dissoc inh: 1%

Results for COc1ccc(-n2c(N)c(C(=O)NCc3ccco3)c3nc4ccccc4nc32)cc1 ?
miR-21 FLuc: 8%; Rango complex inh: inconclusive; Rango dissoc inh: inconclusive; GLA inh pH 4.5: 3

How did O=C(CCN1CCN(C(=O)c2ccco2)CC1)Nc1ccc(F)cc1 do in these assays?
miR-21 FLuc: 0%; Rango complex inh: 4.0%; Rango dissoc inh: 4%; GLA inh pH 4.5: 0

What do the screens show for `O=C1C(=O)N(Cc2cccnc2)C(c2ccccn2)/C1=C(/O)c1ccc(F)cc1` (centres undefined)?
miR-21 FLuc: -4%; Rango complex inh: 0.3%; Rango dissoc inh: 1%; GLA inh pH 4.5: -14

How did CSc1ccccc1C(=O)Nc1ccccc1C(=O)N1CCCC1 do in these assays?
miR-21 FLuc: 0%; Rango complex inh: -0.9%; Rango dissoc inh: -19%; GLA inh pH 4.5: 0

What do the screens show for `Cc1nnc(NC(=O)CSc2nc3ccccc3[nH]2)s1`?
miR-21 FLuc: 1%; Rango complex inh: 2.1%; Rango dissoc inh: -8%; GLA inh pH 4.5: 3

How did CCOC(=O)c1cc2sc(C)cc2n1C(C)C(=O)OCC (centres undefined) do in these assays?
miR-21 FLuc: 0%; Rango complex inh: 4.7%; Rango dissoc inh: -4%; GLA inh pH 4.5: 1

What do the screens show for `CNC(=O)CSc1nnc(-c2ccco2)n1-c1ccc(C)cc1`?
miR-21 FLuc: -2%; Rango complex inh: -2.5%; Rango dissoc inh: -13%; GLA inh pH 4.5: -1

How did CC(C)CN1CCNC(=O)C1CC(=O)N(C)CC1CCOCC1 (centres undefined) do in these assays?
miR-21 FLuc: 0%; Rango complex inh: 0.6%; Rango dissoc inh: 0%; GLA inh pH 4.5: 5

What do the screens show for `Cc1ccc(C(=O)N[C@H](C(=O)OCc2nnc(-c3ccccc3)o2)C(C)C)cc1`?
miR-21 FLuc: -23%; Rango complex inh: 3.5%; Rango dissoc inh: 7%; GLA inh pH 4.5: 0

Results for Cc1ccc(N2CCN(/N=C/c3ccncc3)CC2)cc1 ?
miR-21 FLuc: -10%; Rango complex inh: -0.3%; Rango dissoc inh: 6%; GLA inh pH 4.5: -4

Results for CCOc1ccccc1NC(=O)CSc1nnc2ccc(-c3ccncc3)nn12 ?
miR-21 FLuc: 4%; Rango complex inh: -1.5%; Rango dissoc inh: -6%; GLA inh pH 4.5: 0

How did O=S(=O)(NCc1ccccc1)c1cccc(S(=O)(=O)N2CCOCC2)c1 do in these assays?
miR-21 FLuc: 0%; Rango complex inh: 0.1%; Rango dissoc inh: 0%; GLA inh pH 4.5: 0

Results for CCSc1ncc(Cl)c(C(=O)Nc2ccccc2OC)n1 ?
miR-21 FLuc: 3%; Rango complex inh: -2.5%; Rango dissoc inh: -4%

What do the screens show for `NC(=O)N/N=C/CCc1ccccc1`?
miR-21 FLuc: -2%; Rango complex inh: 0.6%; Rango dissoc inh: -7%; GLA inh pH 4.5: 8

What do the screens show for `CN(NC(=O)c1ccccc1)C1=NS(=O)(=O)c2ccccc21`?
miR-21 FLuc: 0%; Rango complex inh: 2.7%; Rango dissoc inh: 25%; GLA inh pH 4.5: 0

What do the screens show for `CCOc1ccc(N/N=C(/C#N)C(N)=O)cc1`?
miR-21 FLuc: -27%; Rango complex inh: 0.2%; Rango dissoc inh: -10%; GLA inh pH 4.5: -23

Results for COc1ccc(Cc2noc(CN3CCN(Cc4csc(C)n4)CC3)n2)cc1OC ?
miR-21 FLuc: 0%; Rango complex inh: -4.0%; Rango dissoc inh: 11%; GLA inh pH 4.5: 1

What do the screens show for `CCS(=O)(=O)Nc1ccc(C2=NN(C(=O)c3ccco3)C(c3ccco3)C2)cc1` (centres undefined)?
Rango complex inh: -0.1%; Rango dissoc inh: -4%

Results for CCC(C)(C)NC(=O)C(c1cccc(OC)c1OC)N(CC(C)C)C(=O)CCC(=O)Nc1cc(C)on1 (centres undefined) ?
miR-21 FLuc: -3%; Rango complex inh: 0.2%; Rango dissoc inh: -1%; GLA inh pH 4.5: -4

How did CC1=C(C)/C(=N\OS(=O)(=O)c2ccc(C)cc2)C=CC1=O do in these assays?
miR-21 FLuc: inconclusive; Rango complex inh: -2.3%; Rango dissoc inh: inconclusive; GLA inh pH 4.5: -3

Results for CC1(c2nnc(-c3ccc(Cl)cc3)o2)CC(c2ccncc2)=NO1 (centres undefined) ?
miR-21 FLuc: -8%; Rango complex inh: -1.5%; Rango dissoc inh: 5%; GLA inh pH 4.5: 10

What do the screens show for `COc1ccc(C2CC(=O)Oc3cc(C)c(Cl)cc32)cc1` (centres undefined)?
Rango complex inh: -1.5%; Rango dissoc inh: 18%; GLA inh pH 4.5: -4

What do the screens show for `COC(=O)C1=C(C)Nc2[nH]c(=S)[nH]c(=O)c2C1c1ccc(O)cc1` (centres undefined)?
miR-21 FLuc: 7%; Rango complex inh: inconclusive; Rango dissoc inh: inconclusive; GLA inh pH 4.5: 3

How did COc1ccc(OC)c([C@@H]2OCCC=C[C@H]2C)c1 do in these assays?
miR-21 FLuc: -5%; Rango complex inh: -2.1%; Rango dissoc inh: -24%; GLA inh pH 4.5: 9

How did CC(=O)Nc1cccc(C(=O)NCC2(N3CCCCC3)CCCCC2)c1 do in these assays?
miR-21 FLuc: -2%; Rango complex inh: inconclusive; Rango dissoc inh: -15%; GLA inh pH 4.5: -5

How did COc1cccc(/C=C2/Sc3ccc(C(=O)NCCN4CCCCCC4)cc3NC2=O)c1 do in these assays?
miR-21 FLuc: 21%; Rango complex inh: inconclusive; Rango dissoc inh: inconclusive

What do the screens show for `S=c1[nH]nc(-c2ccccc2Cl)n1Cc1ccccc1`?
miR-21 FLuc: -3%; Rango complex inh: -0.5%; Rango dissoc inh: -2%; GLA inh pH 4.5: 1

What do the screens show for `CC(C)(C)Cc1nnc(NC(=O)CCC2CCCCC2)s1`?
miR-21 FLuc: -1%; Rango complex inh: 3.0%; Rango dissoc inh: 9%

Results for COc1cccc(/C=C2\CCC(C3CCCC3)C2=O)c1OC (centres undefined) ?
miR-21 FLuc: -66%; Rango complex inh: 5.2%; Rango dissoc inh: -9%

What do the screens show for `O=C(COC(=O)C1CCN(C(=O)c2ccc(Cl)cc2)CC1)NC1CCS(=O)(=O)C1` (centres undefined)?
miR-21 FLuc: 1%; Rango complex inh: -0.9%; Rango dissoc inh: -8%; GLA inh pH 4.5: -5[21.1 µM]

Results for COc1ccc(NC(=O)c2ccccc2NC(=O)CSc2ccccc2)cc1 ?
miR-21 FLuc: -48%; Rango complex inh: -3.0%; Rango dissoc inh: 2%; GLA inh pH 4.5: 3

Results for CN(CC(=O)Nc1ccccc1Cl)C(=O)Cn1nnc(-c2ccc(F)cc2)n1 ?
Rango complex inh: -3.1%; Rango dissoc inh: -8%

Results for O=C(NCc1cccc(C(F)(F)F)c1)c1cccc(S(=O)(=O)NCc2ccccc2)c1 ?
miR-21 FLuc: 24%; Rango complex inh: 0.2%; Rango dissoc inh: 0%; GLA inh pH 4.5: -20

Results for CC1Cc2ccccc2N1C(=O)COC(=O)c1n[nH]c(=O)c2ccccc12 (centres undefined) ?
Rango complex inh: -1.2%; Rango dissoc inh: -14%

How did O=C(NCCC(=O)N1O[C@@H]2C=C[C@H]1C2)OCC1c2ccccc2-c2ccccc21 do in these assays?
Rango complex inh: -2.8%; Rango dissoc inh: 10%

What do the screens show for `Cc1ccccc1Cn1nc(C)c(NC(=O)c2cc3n(n2)C(C(F)F)CC(C(F)F)N3)c1C` (centres undefined)?
miR-21 FLuc: 0%; Rango complex inh: -0.5%; Rango dissoc inh: 0%; GLA inh pH 4.5: 2

What do the screens show for `CC(=O)OCC1OC(n2c(-c3ccc(Cl)cc3)ccc(C#N)c2=S)C(OC(C)=O)C(OC(C)=O)C1OC(C)=O` (centres undefined)?
Rango complex inh: inconclusive; Rango dissoc inh: inconclusive

By substructure, the compounds so far with a cyano group (2)
What do the screens show for `CCOc1ccc(N/N=C(/C#N)C(N)=O)cc1`?
miR-21 FLuc: -27%; Rango complex inh: 0.2%; Rango dissoc inh: -10%; GLA inh pH 4.5: -23

What do the screens show for `CC(=O)OCC1OC(n2c(-c3ccc(Cl)cc3)ccc(C#N)c2=S)C(OC(C)=O)C(OC(C)=O)C1OC(C)=O` (centres undefined)?
Rango complex inh: inconclusive; Rango dissoc inh: inconclusive

Of the compounds above, these contain a tert-butyl group:
What do the screens show for `CC(C)C[C@@]12C(=O)N(c3cccc(F)c3)C(=O)N1[C@H](c1ccc(Br)cc1)[C@@H]1C(=O)N(C(C)(C)C)C(=O)[C@@H]12`?
Rango complex inh: 2.3%; Rango dissoc inh: 17%

What do the screens show for `CC(C)(C)Cc1nnc(NC(=O)CCC2CCCCC2)s1`?
miR-21 FLuc: -1%; Rango complex inh: 3.0%; Rango dissoc inh: 9%

This is a subset, so the mix of outcomes need not match the whole.
